# CtBP-E1A blk – blocks the CtBP interaction with E1A. AlphaScreen GST-E1A/His-CtBP binding, 1536-well; active compounds read low; control for the full effect not named in the record. activity change, % (no concentration beside the values). 340,000 tested, 0.49% active; in the data active means activity change below about -65%; inconclusive means about -30% to -65%; inactive means above about -30%; further: on the % scale 0 is the no-effect control and ±100 the full control effect
#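 Homogeneous bead-based format: GST-tagged E1A captured on glutathione donor beads, His-tagged CtBP on nickel acceptor beads; compounds precede bead addition by 2 h at 37 °C.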
# TRPML1 blocker – inhibitors of human TRPML1 channel. Q9GZU1. TRPML1-inducible cells, Ca2+ dye fluorescence, FDSS; active compounds read low; inhibition of EC80 agonist-evoked calcium signal. activity change, negative = inhibition, % (test concentration not listed). 390,000 tested, 0.02% active. AID 624415; in the data active means activity change below about -50%; inconclusive means about -30% to -50%; inactive means above about -30%;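 further: stimulus is agonist 54-4 at its EC80 concentration; on the % scale 0 is the no-effect control and ±100 the full control effect; compound concentration not given in the record; the text of the record puts the active cut at -80%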
# Target sequence (Q9GZU1 whole entry, looked up): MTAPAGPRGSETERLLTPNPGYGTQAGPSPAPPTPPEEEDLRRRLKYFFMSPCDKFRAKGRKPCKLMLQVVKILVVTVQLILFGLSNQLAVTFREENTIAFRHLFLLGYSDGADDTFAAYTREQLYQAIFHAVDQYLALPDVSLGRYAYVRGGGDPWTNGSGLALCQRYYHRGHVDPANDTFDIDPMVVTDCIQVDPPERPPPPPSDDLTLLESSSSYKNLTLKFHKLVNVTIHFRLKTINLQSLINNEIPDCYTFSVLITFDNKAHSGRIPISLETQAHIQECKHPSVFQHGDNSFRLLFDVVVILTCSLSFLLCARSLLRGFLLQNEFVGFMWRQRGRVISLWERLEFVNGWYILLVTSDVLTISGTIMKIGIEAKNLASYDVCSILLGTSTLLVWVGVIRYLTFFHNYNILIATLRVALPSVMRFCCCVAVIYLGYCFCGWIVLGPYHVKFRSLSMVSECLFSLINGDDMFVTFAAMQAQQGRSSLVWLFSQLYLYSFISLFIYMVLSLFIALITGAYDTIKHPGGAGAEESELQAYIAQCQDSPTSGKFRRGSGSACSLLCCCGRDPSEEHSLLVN
#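 Tet-induced TRPML1-DL cells loaded with Ca8 no-wash calcium dye were read kinetically on FDSS. Compound addition was followed by EC80 agonist 54-4 (4 uM final); inhibition was read over 110 s.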
# TRPV1 potentiator – potentiators of human vanilloid receptor 1 (TRPV1); Q8NER1; TRPV1-expressing cells, Fluo-8 calcium influx, capsaicin EC20 potentiation; host cell line not named in the record; control for the full effect not named in the record; potentiation, % at 8.33 µM; 320,000 tested, 0.02% active; AID 540277; active means potentiation above 80%; inconclusive means 30% to 80%; inactive means below 30%; further: 0% is about no effect
#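 TRPV1-expressing cells were cultured overnight at 35.5C and loaded with Fluo-8 calcium dye for 40 to 90 min at room temperature. After a 10 s baseline, compound was added and calcium influx was read kinetically for 3 min (ex 480/em 520 nm).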
# TRPML1 agonist – agonists of human TRPML1 channel; activation, % (no concentration beside the values); AID 624414; 410,000 tested, 0.12% active; Q9GZU1; TRPML1-expressing cells, Ca2+ dye fluorescence, FDSS; host cell line not named in the record; reference of the full effect not given here; in the data active = activation above about 50%; inconclusive = about 30% to 50%; inactive = below about 30%; further: 0% is about no effect; the text of the record puts the active cut at 80%
#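 Tetracycline-induced TRPML1-DL cells are seeded and incubated overnight before loading with a no-wash Ca2+ dye and quencher. Agonist activity is taken from the 110 s fluorescence read following compound pin-transfer on an FDSS, before EC80 54-4 challenge.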
# D2 potentiator – positive allosteric modulators of human D2 dopamine receptor; DiscoveRx D2 beta-arrestin cells, luminescence, 90 min; 100% = 57 uM dopamine signal; 360,000 tested, 0.23% active; P14416; AID 624464; potentiation, % (no concentration beside the values); active = potentiation of 50% or more; inconclusive = 30% to 50%; inactive = 30% or less;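 further: compound concentration not given in the record; tested on top of an EC20 dose of dopamine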
# Target sequence (P14416 whole entry, looked up): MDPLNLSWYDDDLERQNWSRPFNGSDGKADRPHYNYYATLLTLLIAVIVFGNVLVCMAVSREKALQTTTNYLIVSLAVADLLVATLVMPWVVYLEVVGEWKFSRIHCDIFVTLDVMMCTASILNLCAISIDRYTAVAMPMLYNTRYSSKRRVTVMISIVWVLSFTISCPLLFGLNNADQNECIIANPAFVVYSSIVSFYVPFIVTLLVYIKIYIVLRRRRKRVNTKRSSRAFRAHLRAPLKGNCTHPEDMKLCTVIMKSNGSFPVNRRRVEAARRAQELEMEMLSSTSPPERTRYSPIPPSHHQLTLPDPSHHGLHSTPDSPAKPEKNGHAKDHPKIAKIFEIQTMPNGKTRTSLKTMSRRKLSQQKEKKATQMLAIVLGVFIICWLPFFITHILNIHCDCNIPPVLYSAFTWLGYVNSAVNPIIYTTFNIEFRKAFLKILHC
#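 PathHunter beta-arrestin assay in DiscoveRx D2 cells. Compounds were added with an EC20 of dopamine (50 nM final) for 90 min at 37 deg C. Luminescence was read 1 h after detection reagent, with 57 uM dopamine as the EC100 control.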
# Six1-Eya2 blk – Six1/Eya2 interaction inhibition; Q15475+O00167; AlphaScreen GST-Six1/His-Eya2 binding, biochemical; active compounds read low; control for the full effect not named in the record; activity change, % (test concentration not listed); 360,000 tested, 0.56% active; AID 651725; in the data active = activity change below about -65%; inconclusive = about -30% to -65%; inactive = above about -30%; further: on the % scale 0 is the no-effect control and ±100 the full control effect
#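 AlphaScreen luminescence read after one hour at 37 °C in darkness. Pin-transferred compounds met GST-Six1 and His-Eya2 protein (5X stock 250 nM/500 nM) plus glutathione donor and Ni-chelate acceptor beads (5X, 50 ug/mL).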
# Numbers without * were called inactive; ? = inconclusive; . = not tested or not shown.
No.	SMILES	CtBP-E1A blk	TRPML1 blocker	TRPV1 potentiator
1	COc1ccc(/C=C/C(=O)OCC(=O)c2cc(C)ccc2C)cc1	7.2	-12.0	.
2	COc1ccc(N2CCN(C(=O)/C(C#N)=C/c3ccccc3)CC2)cc1	2.7	36.5	-1.0
3	Cc1csc(NC(=O)C(NC(=O)c2ccccc2F)C(C)C)n1 (centres undefined)	1.3	2.8	20.9
4	CCOc1ccc2nc(NC(=O)CSc3ccc(Cl)cc3)sc2c1	1.9	-7.8	2.9
5	N#CC(C#N)=NNc1ccc(S(=O)(=O)N2CCCC2)cc1	-4.3	2.8	?
6	CC(=O)C(C)n1c(CN(C)Cc2ccccc2)nc2c1c(=O)n(C)c(=O)n2C (centres undefined)	7.2	9.2	-10.0
7	O=C1c2ccc3c4c(ccc(c24)C(=O)N1c1ccc2ccccc2c1)CC3	-8.3	0.0	.
8	O=C(CCc1ccccc1)n1nc(-c2ccccc2)nc1NCc1ccco1	11.3	1.0	-4.2
9	CCN(CC(=O)Nc1ccccc1C(F)(F)F)C(=O)CCc1nc2ccccc2c(=O)[nH]1	-4.7	15.6	8.0
10	Cc1cccc(C(=O)NC(=S)Nc2ccc(S(=O)(=O)N3CCCCC3)cc2)c1	-11.3	9.1	2.5
11	Nc1ccc(Cc2nc3c(ccc4ccccc43)[nH]2)cc1	2.4	-2.5	.
12	Cc1ccc(SCC(=O)O/N=C(\N)c2cccc([N+](=O)[O-])c2)cc1	-2.2	10.8	?
13	CCn1cc(CNC(=O)C2C3CCC(C3)C2C(=O)O)cn1 (centres undefined)	0.4	-0.1	.
14	COc1ccc(S(=O)(=O)Nc2nnc(C(C)(C)C)s2)cc1	8.7	-6.5	-1.5
15	CCCn1nc(C(=O)NCC(C)(C)N2CCOCC2)c2ccccc2c1=O	3.6	-14.8	10.4

No.	TRPML1 agonist	D2 potentiator	Six1-Eya2 blk
1	-0.5	-1.4	2.1
2	-0.1	-6.1	-6.2
3	1.8	-8.1	-0.5
4	6.4	1.1	0.5
5	0.5	-21.8	-6.4
6	-0.4	-1.0	0.9
7	2.4	25.4	-0.7
8	0.7	15.4	4.3
9	0.1	-7.4	-0.1
10	-0.9	-7.8	-17.7
11	-0.3	-5.7	-6.4
12	0.2	-3.3	-13.0
13	-0.2	10.9	-9.9
14	0.0	-2.2	4.3
15	-0.4	-11.6	-27.5

# 3 records drawn at random from the list so far, as already listed:
No.	SMILES	CtBP-E1A blk	TRPML1 blocker	TRPV1 potentiator
8	O=C(CCc1ccccc1)n1nc(-c2ccccc2)nc1NCc1ccco1	11.3	1.0	-4.2
11	Nc1ccc(Cc2nc3c(ccc4ccccc43)[nH]2)cc1	2.4	-2.5	.
14	COc1ccc(S(=O)(=O)Nc2nnc(C(C)(C)C)s2)cc1	8.7	-6.5	-1.5

No.	TRPML1 agonist	D2 potentiator	Six1-Eya2 blk
8	0.7	15.4	4.3
11	-0.3	-5.7	-6.4
14	0.0	-2.2	4.3

# Next part
No.	SMILES	CtBP-E1A blk	TRPML1 blocker	TRPV1 potentiator
16	O=C(CCn1c(=S)[nH]c2cc3c(cc2c1=O)OCO3)NCc1ccccc1Cl	-14.0	-8.2	2.5
17	NC(=O)c1ccccc1NC(=O)c1ccoc1	-4.0	-0.3	-7.2
18	CNC(=S)Nc1cc(C(F)(F)F)ccc1Cl	7.1	-2.3	16.2
19	CCOCCCn1c(NN)nc2ccccc2c1=O	-5.4	-6.7	-6.7
20	CN(CC(=O)Nc1ccc(F)c(F)c1)S(=O)(=O)c1cccs1	4.8	-0.3	-1.2
21	Cc1ccc2nc(Cl)c3cc(C(=O)N(CCN(C)C)Cc4ccco4)sc3c2c1	-22.0	-6.0	0.4
22	CCCc1ccc2oc(C(=O)N3CCNC(=O)C3CC(=O)OC)c(C)c2c1 (centres undefined)	-0.1	-26.0	-12.6
23	OCc1ccc(-c2ccccc2)c(-c2ccccc2)c1	2.8	6.8	.
24	O=C(Nc1cc(C(F)(F)F)ccc1N1CCOCC1)C1Cc2ccccc2CN1C(=O)c1ccco1 (centres undefined)	2.7	4.8	-14.4
25	COc1cccc(Cn2cccc(NC(=O)Nc3ccccc3C)c2=O)c1	-7.5	0.8	-1.3
26	CC(=O)Cc1c(C(=O)O)c(C)nn1-c1ccccc1	18.9	14.8	5.6
27	CCCC[n+]1ccn(-c2nc3ccccc3nc2[N-]S(=O)(=O)c2ccccc2)c1	27.3	-3.0	0.8
28	COc1ccc(CC(=O)Nc2ccc(-c3nnc(-c4ccc(C)cc4)o3)cc2)cc1	2.2	24.6	1.3
29	CN(C)C(=O)c1cccc(-c2cc(NC=O)c3ncc(-c4ccc(F)c(Cl)c4)n3c2)c1	5.5	.	.
30	O=c1ccn([C@@H]2O[C@H](CNCc3cccc4c3sc3ccccc34)[C@@H](O)[C@H]2O)c(=O)[nH]1	2.4	5.5	.

No.	TRPML1 agonist	D2 potentiator	Six1-Eya2 blk
16	-0.1	-3.2	6.8
17	0.0	-5.4	-0.7
18	-0.1	-14.0	6.6
19	0.2	-2.5	2.9
20	-0.3	-8.1	-1.1
21	0.5	-20.2	-17.0
22	-0.5	22.8	-2.5
23	3.4	-0.3	29.8
24	0.1	-19.7	-6.0
25	5.6	-3.5	-8.2
26	0.5	-5.9	6.2
27	-0.2	-11.3	4.7
28	-0.4	-2.3	26.8
29	2.2	-1.2	5.6
30	-0.1	-10.6	0.5

# Next records
No.	SMILES	CtBP-E1A blk	TRPML1 blocker	TRPV1 potentiator
31	CCc1nn(C(C)C(=O)N2CCN(c3ccc(OC)cc3)CC2)c(=O)c2cc3occc3n12 (centres undefined)	.	-4.2	0.6
32	COc1ccc(C(C(=O)NCc2ccc(F)cc2)N(Cc2cccnc2)C(=O)c2snc(C(N)=O)c2N)cc1 (centres undefined)	2.8	1.9	-0.9
33	Cc1cccc(C(=O)Nc2ccc(C(=O)/C=C/c3cccs3)cc2)c1	-5.3	-0.7	13.5
34	O=C1C(=Cc2cccc(Cl)c2)Cc2ccccc21	5.8	.	.
35	COc1ccc(CNC(=O)C2CCCN(C(=O)Nc3ccccc3OC)C2)cc1 (centres undefined)	4.1	-7.2	2.9
36	NNc1nnc2c3cc(F)ccc3n(Cc3ccccc3)c2n1	21.0	-10.6	2.6
37	CN1N=C(C(C)(C)C)CSC1=Nc1ccc(F)cc1	16.5	16.6	-2.6
38	Cc1ccc(OC(=O)C2CSC3(C)CCC(=O)N23)c(Br)c1 (centres undefined)	0.3	-7.9	10.6
39	CSc1ccc(C(=O)C2CCCN(Cc3cccc4nccnc34)C2)cc1 (centres undefined)	-0.4	-21.9	11.7
40	Cc1ccc(S(=O)(=O)c2nc(S(C)(=O)=O)sc2N2CCC3(CC2)OCCO3)cc1	1.5	-12.8	2.3
41	Cc1csc(NC(=O)c2ccccc2[N+](=O)[O-])n1	5.2	-9.0	27.3
42	CC(=O)c1ccc(OCC(O)CN2C(C)CCCC2C)cc1 (centres undefined)	5.4	9.2	.
43	Cc1cc(C(=O)CSc2nc(N)cc(=O)[nH]2)c(C)n1-c1ccc(OC(F)F)cc1	-0.9	-7.0	-8.8
44	O=C(NCc1ccccc1)C1c2ccccc2OCC(=O)N1CCCN1CCOCC1 (centres undefined)	8.0	.	.
45	COc1ccc(S(=O)(=O)Nc2ccc(-c3ccc4nnc(C)n4n3)cc2)c(OC)c1	-5.7	10.0	-14.4

No.	TRPML1 agonist	D2 potentiator	Six1-Eya2 blk
31	2.8	-14.0	-10.2
32	0.8	-6.0	4.1
33	-0.6	-11.4	0.9
34	-0.5	-3.8	5.0
35	-0.4	2.0	-0.2
36	1.3	-2.1	11.2
37	0.6	0.5	7.5
38	1.1	-2.2	2.2
39	0.4	-8.2	-4.0
40	0.1	-5.7	12.4
41	1.0	-11.0	0.0
42	0.6	-0.3	3.6
43	0.6	4.0	-1.6
44	-0.4	.	4.0
45	1.5	7.3	-5.8

# An excerpt from above in order of their number in TRPML1 blocker, rising.
no.	SMILES	TRPML1 blocker
40	Cc1ccc(S(=O)(=O)c2nc(S(C)(=O)=O)sc2N2CCC3(CC2)OCCO3)cc1	-12.8
36	NNc1nnc2c3cc(F)ccc3n(Cc3ccccc3)c2n1	-10.6
43	Cc1cc(C(=O)CSc2nc(N)cc(=O)[nH]2)c(C)n1-c1ccc(OC(F)F)cc1	-7.0
7	O=C1c2ccc3c4c(ccc(c24)C(=O)N1c1ccc2ccccc2c1)CC3	0.0
6	CC(=O)C(C)n1c(CN(C)Cc2ccccc2)nc2c1c(=O)n(C)c(=O)n2C (centres undefined)	9.2

# The listing continues.
No.	SMILES	CtBP-E1A blk	TRPML1 blocker	TRPV1 potentiator
46	COc1ccccc1NS(=O)(=O)c1cc(Cl)ccc1OC	3.9	38.0	2.5
47	O=C(COC(=O)/C=C/c1cccs1)Nc1ccc2ccccc2c1	-1.1	-13.0	3.5
48	C=CCN(C(=O)CCC(=O)O)C1CC(=O)N(c2ccc(OCCC)cc2)C1=O (centres undefined)	1.2	-4.9	-12.2
49	Cn1ccnc1C(O)(c1ccccc1)c1ccccc1	-8.5	18.7	-15.8
50	COc1cc(CNc2nc(C)c([N+](=O)[O-])c(C)c2C#N)cc(OC)c1OC	-8.9	4.5	6.9
51	COc1ccc(C)cc1Nc1cc(C)nc2nc(C)nn12	-0.7	10.8	-6.6
52	CCOC(=O)c1c(C)[nH]c(C(=O)OCC(=O)N(CC(C)C)C2CCS(=O)(=O)C2)c1C (centres undefined)	-10.0	-14.2	-1.4
53	O=C1C(=O)N(Cc2ccccc2)C(=O)N1CCN1C(=O)c2ccccc2C1=O	13.9	5.4	1.1
54	Cc1nc(Cc2nnc(SC(C)C(=O)Nc3ccccc3)o2)cs1 (centres undefined)	2.7	-4.2	.
55	COc1ccc(Nc2cc(C)nc3ncnn23)cc1	1.6	?	.
56	COc1ccc(NC(=S)N/N=C/c2ccc(F)c(F)c2)cc1	1.7	52.0	-4.5
57	Cc1ccc2nc3c(cc(C(N)=S)c(=N)n3CCCOC(C)C)c(=O)n2c1	-3.8	8.1	4.5
58	Fc1ccc2c(c1)C(c1cccnc1)=NNC(c1cccs1)=N2	0.8	33.6	-1.5
59	c1ccc(COc2nsnc2N2CCOCC2)cc1	?	15.3	.
60	Cc1cc(N2CCN(C(=O)c3ccco3)CC2)n2ncnc2n1	-0.2	-5.4	28.8
61	CCOC(=O)c1ccccc1Nc1cn(C(C)=O)c2ccccc12	6.8	6.8	-17.2

No.	TRPML1 agonist	D2 potentiator	Six1-Eya2 blk
46	1.3	4.5	7.0
47	1.8	-3.6	-4.4
48	-0.5	12.8	8.1
49	0.0	-0.2	6.0
50	-0.2	-11.5	-10.9
51	0.6	-3.6	5.3
52	0.3	-12.2	-0.2
53	0.0	-1.8	-2.0
54	-0.1	-5.2	2.4
55	0.0	3.0	-0.1
56	1.3	-5.8	-5.8
57	0.1	-9.9	-8.4
58	1.5	3.2	-2.6
59	0.7	-3.5	?
60	-0.4	-5.1	-4.5
61	0.2	-25.4	-7.2

# From PubChem BioAssay

# Rows are unselected. About 0.95% of those tested had a hit in this group.
